VDR inhibitor: vitamin D3 receptor (human) inhibition | VDR-SRC2-3 peptide fluorescence polarization, 2 h | Potency, µM, inactives show max response, negative = inhibition, actives largely listed as inhibitors | actives 0.93% (n = 400,000) | P11473; active = well fitted inhibition curve with a large enough effect; inconclusive = small, poorly fitted or top-dose-only effect, or another doubt; inactive = no such curve, though single readings can be large or run the other way; also: series mostly up to about 120 µM
Target sequence (P11473 whole entry, looked up): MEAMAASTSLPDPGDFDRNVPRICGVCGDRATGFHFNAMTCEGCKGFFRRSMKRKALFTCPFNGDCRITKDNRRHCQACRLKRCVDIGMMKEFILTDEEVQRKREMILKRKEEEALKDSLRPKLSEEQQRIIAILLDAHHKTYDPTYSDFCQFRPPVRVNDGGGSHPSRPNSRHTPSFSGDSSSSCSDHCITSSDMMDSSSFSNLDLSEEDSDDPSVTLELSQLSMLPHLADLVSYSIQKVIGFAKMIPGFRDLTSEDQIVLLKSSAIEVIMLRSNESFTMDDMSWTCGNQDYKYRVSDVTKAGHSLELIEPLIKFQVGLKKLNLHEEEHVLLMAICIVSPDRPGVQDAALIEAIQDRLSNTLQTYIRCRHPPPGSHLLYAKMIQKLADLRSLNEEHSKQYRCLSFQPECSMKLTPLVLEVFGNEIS
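VDR–SRC2-3 interaction, FP format. Cmpds 23 nl via pintool, brief spin, 2 h ambient incubation.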
* hit, by the source's call; ? = inconclusive; & = joins results of further samples; [ ] = dose if it differs, or a comment. % is scaled to controls: 0 for no effect and ±100 for the full control effect; potency is read from the fitted curve at half-maximal effect. Some of the compounds tested (hit frequency here may not be typical).

SMILES	VDR inhibitor
c1cncc(C2CCCN2)c1 (configuration not stated)	9.2%
O=c1[nH]c(=O)n(Cc2ccccc2)c(O)c1/C=C1\C=Nc2ccccc21	-10.5%
O=C(CN1C(=O)CN=C(c2ccccc2)c2ccccc21)Nc1cccc(C(F)(F)F)c1	-11.8%
N#Cc1c(/N=C/C2C(=O)NC(=S)NC2=O)sc2c1CCCC2	?
O=c1[nH]c(O)c(/C=C2\C=NN=C2c2ccccc2)c(=O)[nH]1	?
COc1cc(CN2CCCC(C(=O)c3sccc3C)C2)cc(Cl)c1O (configuration not stated)	-2.3%
ClC1=C(Cl)C2(Cl)C3C4CC(C5OC45)C3C1(Cl)C2(Cl)Cl (configuration not stated)	?
COc1ccc(-c2cc(=NCCCCCC(=O)O)c3cc(C)ccc3o2)cc1	-14.1%&-5.2%
CC1([N+](=O)[O-])COP(=O)(Nc2ccc(F)cc2)OC1 (configuration not stated)	-15.0%
Nc1ccc2c(c1)oc1ccccc12	-9.6%
C=C(C)[C@H]1O[C@H]2CC[C@@]3(C)[C@@](O)(CC[C@H]4[C@@H]5OC(C)(C)[C@H]6C[C@@H]7C(=C)Cc8c(Cl)cc9[nH]c(c5c9c8[C@@]76O)[C@@]43C)[C@]23O[C@@H]3[C@H]1O	-0.6%
CN(CCc1ccc(Cl)c(Cl)c1)[C@@H]1CCCC[C@@H]1N1CCCC1	-1.8%
CN1CC[C@@H]2CN3CCc4cccc(c43)[C@H]2C1	-21.7%
Cc1cc(Br)ccc1N1C(=O)CC(=O)NC1=O	-29.4%
COc1ccc(-c2n(-c3ccccn3)c3ccccc3[n+]2-c2ccccn2)cc1	-4.1%
CCC(C)n1c(O)c(C=NCc2cccnc2)c(=O)[nH]c1=S (configuration not stated)	0.0%
O=C1NC(=O)N(Cc2ccccc2)C(=O)/C1=C\c1ccco1	-3.0%
CP(=O)(O)CN1CCCCC1	-16.7%
O=P(O)(Oc1ccccc1)c1ccccc1	1.1%
Cn1c(O)c(C=NCCCCCCCCCCC(=O)O)c(=O)n(C)c1=O	-9.9%
O=C(c1ccc(N2CC3CC(C2)c2cccc(=O)n2C3)c([N+](=O)[O-])c1)N1CCCCC1 (configuration not stated)	-17.6%
COc1cccc(C(=O)N2CCC3(CC2)OCCO3)c1	-12.4%
C1CCCN(C2CCNCC2)CC1	17.0%
C[C@@]12C=CC(=O)C=C1CCC1C2CC[C@]2(C)C(=O)CCC12 (some centres not stated)	7.1%
COc1cccc(C(=O)C2CCCN(Cc3cccc(C)n3)C2)c1 (configuration not stated)	6.9%
NC(=O)C1CCN(/C=C2\C(=O)NC(=O)N(Cc3ccco3)C2=O)CC1	0.5%
COC(=O)[C@H]1C[C@@H]1[C@H](NP(=O)(c1ccccc1)c1ccccc1)c1ccccc1	-0.4%
CCOC(=O)c1c(C)n(Cc2ccc3c(c2)OCO3)c2ccc(O)cc12	-5.2%
CSc1nc2ccccc2c(=O)n1-c1cccnc1	17.8%
Cn1c(O)c(C=NCCN2CCNCC2)c(=O)[nH]c1=O	-12.9%
Cc1cnn(C2CCN(C)CC2)c1N	-18.0%
Nc1cc(Cl)cc(Cl)c1	-10.5%
COc1ccc(NP2(=O)OCC(C)(N)CO2)cc1 (configuration not stated)	1.1%
C[C@]12CC[C@H](O)CC1=CC(=O)C1C2CC[C@]2(C)C(=O)[C@H](O)CC12 (some centres not stated)	-16.3%
CCC1(CCc2ccncc2)C(=O)NC(=O)NC1=O	17.1%
CC(C)CC1C(=O)N2CCCC2C2(O)O[C@@](NC(=O)C3C=C4c5cccc6[nH]c(Br)c(c56)CC4N(C)C3)(C(C)C)C(=O)N12 (some centres not stated)	?
CC12CCC3C(CC=C4CC5(CCC43C)OCCO5)C1CCC2=O (configuration not stated)	-17.7%
COC(=O)[C@H]1[C@H]2C[C@@H]3c4[nH]c5cc(OC)ccc5c4CCN3C[C@H]2C[C@@H](OC(=O)/C=C/c2cc(OC)c(OC)c(OC)c2)[C@@H]1OC	35.6%[activator]
C[C@H](O)[C@H]1CC[C@H]2[C@@H]3CCC4=CC(=O)CC[C@]4(C)[C@H]3CC[C@]12C	-12.0%
C#C[C@]1(O)CCC2C3CCC4=C/C(=N/OCC(=O)NC(C)C(=O)NC(CCSC)C(=O)O)CC[C@]4(C)C3CC[C@@]21C (some centres not stated)	?

In another format: 3 of the compounds above
C[C@]12CC[C@H](O)CC1=CC(=O)C1C2CC[C@]2(C)C(=O)[C@H](O)CC12 (some centres not stated)
  VDR inhibitor: -16.3%
COC(=O)[C@H]1[C@H]2C[C@@H]3c4[nH]c5cc(OC)ccc5c4CCN3C[C@H]2C[C@@H](OC(=O)/C=C/c2cc(OC)c(OC)c(OC)c2)[C@@H]1OC
  VDR inhibitor: 35.6%[activator]
C#C[C@]1(O)CCC2C3CCC4=C/C(=N/OCC(=O)NC(C)C(=O)NC(CCSC)C(=O)O)CC[C@]4(C)C3CC[C@@]21C (some centres not stated)
  VDR inhibitor: ?

New compounds follow
SMILES	VDR inhibitor
CC(=O)OC1N=C(c2ccccc2)c2cc(C)ccc2NC1=O (configuration not stated)	-0.7%
N=C1c2ccccc2CN1NC(=O)C1CC1	-18.9%
CN1CCN(c2nccc3c2ncn3C)CC1	1.0%
CC(=NCc1ccc2c(c1)OCO2)c1c(O)n(C)c(=O)n(C)c1=O	-5.1%
CN(C)c1ccc(NC(=O)Oc2ccccc2)cc1	?
CCOC(=O)c1ccc(NC(=O)c2cccn(Cc3ccccc3F)c2=O)cc1	4.4%
O=C(CN1CCCC1=O)N1CCOCC1	-17.2%
Nc1c(Br)cc2c3c(cccc13)-c1ccccc1-2	28.2µM*
S=C=S	-2.4%
O=C1CN=C(c2ccccc2)c2cc(Cl)ccc2N1	-10.8%

6 entries drawn at random from those above:
SMILES	VDR inhibitor
S=C=S	-2.4%
CN1CCN(c2nccc3c2ncn3C)CC1	1.0%
CC1([N+](=O)[O-])COP(=O)(Nc2ccc(F)cc2)OC1 (configuration not stated)	-15.0%
O=P(O)(Oc1ccccc1)c1ccccc1	1.1%
COC(=O)[C@H]1C[C@@H]1[C@H](NP(=O)(c1ccccc1)c1ccccc1)c1ccccc1	-0.4%
Cc1cc(Br)ccc1N1C(=O)CC(=O)NC1=O	-29.4%

(cont.)
SMILES	VDR inhibitor
Cc1ccc(NC(=O)Cn2c(=O)oc3ccccc32)cc1C	?
COC(=O)C1=C(c2ccccc2OCc2ccccc2)C[C@@H]2CC[C@H]1N2C(=O)NCc1ccccc1	-12.9%
C[C@H](NC[C@H](O)CP(=O)(O)CC1CCCCC1)c1ccc(Cl)c(Cl)c1	?
COc1ccccc1CN1CCCC2(CCN(C(=O)Oc3ccccc3)CC2)C1	8.3%
O=C(COc1ccc(Br)cc1)N1CCN(Cc2c[nH]c3ccccc23)CC1	-9.5%
CON(C)C(=O)Nc1ccc(Cl)cc1	-4.6%
c1ccc(C2CC2)c(OCC2=NCCN2)c1	9.9%&-15.7%&8.1%
CCCCCCCCc1[se]c2ccccc2c1I	-3.5%
CC(C)OP(=O)(O)NC(=O)c1ccccc1	-6.7%
Cn1cc(C(=O)NC2CC2)c2ccccc21	-5.9%
COc1ccc2c(c1)[nH]c1c(C)nccc12	-21.1%&-31.8%&1.6%
CCOP(=O)(OCC)C(NC(=O)CN1C(=O)c2ccccc2S1(=O)=O)C(Cl)(Cl)Cl (configuration not stated)	-1.5%
CCOP(=O)(OCC)C(O)c1ccc(Br)cc1 (configuration not stated)	15.7%
COC(=O)C1=C(c2ccc(S(C)(=O)=O)cc2)C[C@@H]2CC[C@H]1N2C(=O)NCc1ccccc1	-10.9%
Cc1ccc(CC(=O)N2CCN(C)CC2)cc1	14.0%
CCOC(=O)C1=C(NC(=S)NC(=O)c2ccccc2)c2ccccc2CC12CCCC2	-21.1%
Cc1cccc(NC2=NCCCS2)c1C	-20.7%
CCCCn1c(=O)c(C(=O)NCCc2ccccc2)c(O)c2ccccc21	-19.3%
NC(CCP(=O)(O)O)C(=O)O (configuration not stated)	-0.2%
CCc1cc(=O)oc2c(C)c(OCC(=O)N3C[C@H]4C[C@@H](C3)c3cccc(=O)n3C4)ccc12	0.7%
O=C(c1cc2ccccn2n1)N1CCC2(CC1)OCCO2	11.6%
Cc1[nH]c2ccccc2c1CCNCc1cccnc1	6.7%
Fc1ccccc1CN1CCN(c2ccc(Cl)cc2)CC1	13.2%
CC1([N+](=O)[O-])COP(=O)(Nc2cccc(Cl)c2)OC1 (configuration not stated)	-2.4%
CCCCc1nc2ccccc2c(=O)n1-c1cccc(OC)c1	-8.6%
CN1CC(C(=O)c2ccccc2)C(c2ccccc2)C1 (configuration not stated)	-12.7%
CC(C(N)=O)N1CC(c2ccccc2)CC1=O (configuration not stated)	-16.6%
C#CC[N+]1(C)C2CCC1CC(O)C2 (configuration not stated)	6.9%
O=C(c1ccc2c(c1)ncn2-c1ccc(F)cc1F)N1CCC2(CC1)OCCO2	-14.6%
S=C=Nc1cccc(C2(N3CCCCC3)CCCCC2)c1	-2.0%&6.6%
COc1ccc(N/N=C/c2c(O)n(-c3ccc(C)c(C)c3)c(=O)[nH]c2=O)cc1	?
CCc1nc2ccccc2c(=O)n1-c1ccc2ccccc2c1	12.2%
CC(=O)O[C@H]1[C@H]2[C@@H](OC(=O)Cc3ccccc3)[C@@H](C)C[C@]2(OC(C)=O)C(=O)/C(C)=C/[C@@H]2[C@H](CC[C@@]13CO3)C2(C)C	6.1%
COC(=O)c1c(C)[nH]c(C(=O)C(Cc2ccccc2)N(C)C)c1C (configuration not stated)	-18.2%
CCOc1ccccc1CN(CCc1ccc2c(c1)OCO2)Cc1ccc(CC)cc1	-15.9%
CNCCCc1ccccc1	-19.8%
O=C1NC(=O)N(Cc2ccccc2)C(=O)/C1=C/N1CCCc2ccccc21	?
O=C(Cc1ccccc1)OCCN1CCOCC1	-14.1%
CCC(=O)OC1(c2cccc(C)c2)CC(C)N(C)CC1C (configuration not stated)	-6.7%
Nc1cncc(C(=O)O)c1	-5.1%&21.7%
C[C@@H](C1CC[C@@]2(O)C3=CC(=O)[C@@H]4C[C@@H](O)[C@@H](O)C[C@]4(C)[C@H]3CC[C@]12C)[C@H](O)CCC(C)(C)O (some centres not stated)	-11.3%
COc1ccc(C2NCc3ccccc3-n3cccc32)cc1 (configuration not stated)	-5.3%
COc1cc(/C=C/C(=O)c2c(O)n(CCc3ccccc3)c(=O)[nH]c2=O)ccc1O	44.7µM*
CCN1C[C@]2(C)CC[C@H](OC)[C@@]34[C@H]1C1(OCO[C@@]15C[C@H](OC)C1C[C@]3(O)C5[C@H]1OC)[C@@H](O)[C@H]24	6.2%
Cc1ccc2c(c1)N(N=O)CCC2	-1.7%
COc1ccc(CCNCc2sccc2C)cc1	?
O=C(Oc1ccccc1)N1CCC2(CC1)CN(Cc1ccncc1)C2	-3.1%
O=C(c1ccc(Cl)cc1)C1CCCN(Cc2cccc3cnccc23)C1 (configuration not stated)	?
c1ccc2sc(C3CCNCC3)nc2c1	-18.0%
Cc1ccsc1C(=O)C1CCCN(Cc2cnc(N3CCOCC3)s2)C1 (configuration not stated)	1.2%
Next entries:
SMILES	VDR inhibitor
COC(=O)C1=C(c2ccccc2OCc2ccccc2)C[C@@H]2CC[C@H]1N2C(=O)NC1CCN(Cc2ccccc2)CC1	-15.2%
CCn1c(O)c(C=Nc2ccc(N3CCOCC3)cc2)c(=O)n(CC)c1=S	-20.4%
COC(=O)C1=C(c2ccc(C(C)=O)cc2)C[C@@H]2CC[C@H]1N2C(=O)N1CCCCC1	-0.7%
Oc1ccc2c3c1O[C@H]1c4c(c5ccccc5n4Cc4ccccc4)C[C@]4(O)[C@H](C2)N(CC2CC2)CC[C@@]314	?
C/C(=N\N(C)c1ccccc1)c1c(O)[nH]c(=O)[nH]c1=O	-13.7%
COc1ccc(/C=C2/C(=O)N(c3ccccc3)N=C2C)cc1	89.1µM*
NC(=O)Cn1cc(C=C2C(=O)NC(=O)NC2=O)c2ccccc21	-11.4%
O=C(C1CC(c2ccc(Cl)c(Cl)c2)=NO1)N1CCC2(CC1)OCCO2 (configuration not stated)	-6.9%
O=C(O)COc1ccc(/C=C2/SC(=S)N(Cc3ccccc3)C2=O)cc1	?
Nc1c(C(=O)OC2CCCCC2)c2nc3ccccc3nc2n1CC1CCCO1 (configuration not stated)	-0.8%
CCCOC(=O)C1C2CCC(O2)C1C(=O)O (configuration not stated)	23.4%
COc1ccc(NC(=O)c2c(C)nn(Cc3ccccc3Cl)c2Cl)cc1Cl	-25.4%
c1ccc(P(c2ccccn2)c2ccccn2)cc1	-11.6%
COC(=O)/C=C\C(=O)N[C@@H]1CC[C@@]2(O)[C@H]3Cc4ccc(O)c5c4[C@@]2(CCN3CC2CC2)[C@@H]1O5	3.7%
O=C(c1cccn2c(=O)c3cc(Cl)ccc3nc12)N1CCC2(CC1)OCCO2	-2.6%
CCCCCn1c(=O)c(C(=O)Nc2c(C)n(C)n(-c3ccccc3)c2=O)c(O)c2ccccc21	-5.4%
OCC[N+]12CCC(CC1)C(C(O)(c1ccccc1)c1ccccc1)C2 (configuration not stated)	-4.7%
C[C@]1(C(=O)O)CCC[C@]2(C)c3cc(O)ccc3CC[C@@H]12	-25.2%
O=C(O)c1ccc(-[n+]2c(-c3ccccc3)cc(-c3ccccc3)cc2-c2ccccc2)cc1	-14.0%
CN1CCC(N(C)c2ccc(C(N)=O)cc2[N+](=O)[O-])CC1	27.7%
O=[N+]([O-])c1ccc(-c2[se]c3ccccc3c2I)cc1	?
COC(=O)C1=CO[C@@H](C)[C@@H]2CN3CCc4c([nH]c5cc(OC)ccc45)[C@@H]3C[C@H]12	79.4µM*
COc1ccc(OC)c(NC(=O)Cn2cc(C(=O)c3ccccc3)c3ccccc32)c1	18.1%
CCCSc1nc(O)c(CC)c(=O)n1C(C)CC (configuration not stated)	10.4%
CN1CCN(c2ncnc3ccc(Br)cc23)CC1	-11.4%
CCOC(=O)c1nc2ccccc2c(=O)n1-c1ccc(C)cc1C	-13.3%
CN1C(=O)C(Cc2ccccc2)C(=O)N(C)C1=O	-8.4%

As a working copy, 2 of the compounds above.
SMILES	VDR inhibitor
O=[N+]([O-])c1ccc(-c2[se]c3ccccc3c2I)cc1	?
COC(=O)C1=CO[C@@H](C)[C@@H]2CN3CCc4c([nH]c5cc(OC)ccc45)[C@@H]3C[C@H]12	79.4µM*

Source: PubChem (National Center for Advancing Translational Sciences (NCATS))
